StopGo RLuc = lowers the Renilla signal of an FMDV 2A StopGo reporter; 120,000 compounds, 0.32% hits; HEK cells with a luciferase reporter of 2A StopGo recoding; Potency, µM (doses to about 57.5 µM), without a hit: top-dose signal change, negative = less light; active means well fitted falling curve with a large enough effect; inconclusive means small, poorly fitted or top-dose-only effect; inactive means no such curve, though single readings can be large or run the other way; also: nearly all actives have a fitted effect of over 55% in size; overnight with compound
2A firefly = lowers the firefly signal of an FMDV 2A StopGo reporter. HEK cells with a luciferase reporter of 2A StopGo recoding. 120,000 compounds, 0.23% hits. Potency, µM (series often up to 57.5 µM), for inactives: at the highest dose signal change, negative = less light; active = well fitted falling curve with a large enough effect; inconclusive = small, poorly fitted or top-dose-only effect; inactive = no such curve, though single readings can be large or run the other way; also: nearly all actives have a fitted effect of over 60% in size; overnight with compound
* marks the source's active call; other numbers are inactive results; ? = inconclusive; & = joins results of further samples; [ ] = remark or other dose. % is scaled to controls: 0 for no effect and ±100 for the full control effect; potency is read from the fitted curve at half-maximal effect. This is a random part of the collection; 0.55% or so of the library scored in one or more.

SMILES	StopGo RLuc	2A firefly
CCCN1CCN(S(=O)(=O)c2ccc(/C=C\c3onc(C)c3NC(=O)C3CC3)cc2)CC1	48%[activator]	-3%
COC(=O)Cn1c(SCCOc2ccccc2OC)nc2ccccc21	5%	35%[activator]
Cc1cc(=O)n(Cc2ccccc2Cl)c2c1c(C)nn2-c1ccccc1	-11%	-14%
COc1ccccc1C(=O)NCCc1csc(-c2ccc(C(F)(F)F)cc2)n1	34%[activator]	-6%
COc1ccc(OCC(=O)Nc2ccc(O)c(-c3nc4ccccc4s3)c2)cc1	-1%	34%[activator]
O=C(NC1CC1)C1(c2ccc(Br)cc2)CCCC1	9%	21%
CC1(C)CN(Cc2cc(C#N)ccc2F)CCO1	3%	15%
COc1ccc(/C=C/c2ccc3ccccc3n2)cc1OC	-8%	-39%
CCOc1ccc(NC(=O)c2nn(-c3cc(OC)cc(OC)c3)c(=O)c3ccccc23)cc1	2%	1%
COc1ccc(-c2cc(C)nc3c(-c4ccc(OC)c(OC)c4)c(C)nn23)cc1	-6%	-35%
CCOC(=O)c1c(C)oc2nc(C)nc(NCC3CCN(Cc4cccc(Cl)c4)CC3)c12	-7%	9%
COc1ccc(C(C)=O)cc1CSCc1coc(-c2ccc(Cl)cc2)n1	?	?
CC(=O)c1ccc(NC(=O)c2sc3nc(N4CCOCC4)c4c(c3c2N)CC(C)(C)OC4)cc1	12%	114%[activator]
Brc1ccc(-c2ccc(CNCCSc3nnnn3-c3ccccc3)o2)cc1	11%	5%
CCOc1ccccc1NC(=O)N1CCN(Cc2cc(=O)n3nc(-c4ccc(C)cc4)sc3n2)CC1	-17%	-13%
CC(C)c1ccc(-c2nnn(C(C)C(=O)Nc3cccc(C#N)c3)n2)cc1 (stereo not given)	15%	68%[activator]
COc1cccc(CN(C)C(=O)CSc2nc(-c3cccs3)nc3ccccc23)c1	5%	5%
Cc1cc2nc(-c3ccc(OCc4ccccc4Cl)cc3)cc(C(F)(F)F)n2n1	-8%	-10%
CCOc1cc(/C=C/c2nc3ccccc3s2)ccc1O	16%	0%
Fc1ccc(-n2ncc3c(N4CCC(Cc5ccccc5)CC4)ncnc32)cc1	-3%	6%
CCOc1ccccc1CNC(=O)c1cccc(NC(=O)c2nsc3ccccc23)c1	23%	126%[activator]
CCOC(=O)C1=C(CN2CCN(C(=O)OC(C)(C)C)CC2)NC(=O)NC1c1cccc(OC)c1 (stereo not given)	-1%	-4%
Cc1ccccc1NCc1nc2ccccc2n1CCOc1ccccc1	50%[activator]	136%[activator]
O=C(O)CC1(CC(=O)Nc2ccccc2CO)CCCCC1	-2%	0%
O=C1CC(=O)Nc2cc(S(=O)(=O)Nc3cccc(Br)c3)ccc2N1	26%	-17%
Cc1noc(C)c1S(=O)(=O)Nc1ccccc1SCc1cc(=O)n2cc(Cl)ccc2n1	0%	174%[activator]
CCN(CC)C(=O)c1cccc(NC(=O)c2cc(S(=O)(=O)NCc3ccccc3)ccc2C)c1	164%[activator]	-5%
CCOc1ccc(N/C=C/C(=O)c2ccc(C(C)C)cc2)cc1	13%	163%[activator]
COc1ccc(OC)c(C2Nc3c(C)cc(C)cc3-c3cc(C)nn32)c1 (stereo not given)	-5%	-19%
CC(C)CC(=O)NCC1(N(C)C)CCCCC1	-3%	-4%
CC(C)(C)c1ccc(C(=O)N/N=C/c2cccc3ccccc23)cc1	6%	0%
COc1ccc(S(=O)(=O)N(C)Cc2nc(-c3ccc(OC(F)(F)F)cc3)no2)cc1	?	?
COc1ccc(OC)c(NC(=O)CSC2=Nc3ccccc3C3=NC(CCC(=O)NCc4ccco4)C(=O)N23)c1 (stereo not given)	10%	-5%
N#CC1CCNCC1	10%	11%
O=C(/C=C/c1cccs1)Oc1cccc2ccccc12	11%	0%
COc1cccc(-n2c(-c3ccc(Cl)cc3)cc3c2CC(C)(C)CC3=O)c1	-9%	-14%
COc1ccccc1NC(=O)Cn1nc(C)n2cccc2c1=O	-6%	-16%
Cc1cc(=O)oc2cc(OCC(=O)NCCN(C)C)c(Cl)cc12	-2%	1%
Cc1cccc(C(=O)Nc2c(NC3CCCC3)c3ccccc3oc2=O)c1	-8%	2%
CCOC(=O)c1cnc2c(C)cccc2c1Nc1cccc([N+](=O)[O-])c1	-8%	1%
Cn1cc(S(=O)(=O)N2CCCC(C(=O)Nc3nn(Cc4ccc(F)cc4)cc3Cl)C2)cn1 (stereo not given)	-16%	-12%
O=C(O)c1cccn1-c1ccccc1	-2%	4%
CCC(=O)N1CCc2cc(Br)cc(S(=O)(=O)CCC(=O)NCCc3ccccc3)c21	12%	-10%
Cc1cc(NC(=O)CSc2nnc(-c3cccnc3)n2C2CC2)no1	-12%	6%
NC(=O)c1oc2ccccc2c1NC(=O)C(=O)O	-6%	14%

A section from the list above, for reference:
SMILES	StopGo RLuc	2A firefly
O=C(O)CC1(CC(=O)Nc2ccccc2CO)CCCCC1	-2%	0%
O=C1CC(=O)Nc2cc(S(=O)(=O)Nc3cccc(Br)c3)ccc2N1	26%	-17%
Cc1noc(C)c1S(=O)(=O)Nc1ccccc1SCc1cc(=O)n2cc(Cl)ccc2n1	0%	174%[activator]
CCN(CC)C(=O)c1cccc(NC(=O)c2cc(S(=O)(=O)NCc3ccccc3)ccc2C)c1	164%[activator]	-5%
CCOc1ccc(N/C=C/C(=O)c2ccc(C(C)C)cc2)cc1	13%	163%[activator]
COc1ccc(OC)c(C2Nc3c(C)cc(C)cc3-c3cc(C)nn32)c1 (stereo not given)	-5%	-19%
CC(C)CC(=O)NCC1(N(C)C)CCCCC1	-3%	-4%
CC(C)(C)c1ccc(C(=O)N/N=C/c2cccc3ccccc23)cc1	6%	0%
COc1ccc(S(=O)(=O)N(C)Cc2nc(-c3ccc(OC(F)(F)F)cc3)no2)cc1	?	?
COc1ccc(OC)c(NC(=O)CSC2=Nc3ccccc3C3=NC(CCC(=O)NCc4ccco4)C(=O)N23)c1 (stereo not given)	10%	-5%
N#CC1CCNCC1	10%	11%
O=C(/C=C/c1cccs1)Oc1cccc2ccccc12	11%	0%
COc1cccc(-n2c(-c3ccc(Cl)cc3)cc3c2CC(C)(C)CC3=O)c1	-9%	-14%
COc1ccccc1NC(=O)Cn1nc(C)n2cccc2c1=O	-6%	-16%
Cc1cc(=O)oc2cc(OCC(=O)NCCN(C)C)c(Cl)cc12	-2%	1%
Cc1cccc(C(=O)Nc2c(NC3CCCC3)c3ccccc3oc2=O)c1	-8%	2%
CCOC(=O)c1cnc2c(C)cccc2c1Nc1cccc([N+](=O)[O-])c1	-8%	1%
Cn1cc(S(=O)(=O)N2CCCC(C(=O)Nc3nn(Cc4ccc(F)cc4)cc3Cl)C2)cn1 (stereo not given)	-16%	-12%
O=C(O)c1cccn1-c1ccccc1	-2%	4%

The list continues:
SMILES	StopGo RLuc	2A firefly
Cc1ccc2oc(C(=O)Nc3nnc(C)s3)cc(=O)c2c1	0%	49%[activator]
COc1ccc(C(NC(=O)CSc2ccc3c(c2)OCCCO3)c2ccccc2)cc1 (stereo not given)	16%	-22%
O=[N+]([O-])c1ccc(/C=N/N=C(c2ccccc2)c2ccccc2)cc1	12%	6%
CC(C)Oc1ccc(CNS(=O)(=O)c2ccc3c(c2)C(C)(C)C(=O)N3C)cc1	37%[activator]	-11%
CCOc1ccc(NC(=O)c2nc(-c3ccccc3)n(-c3ccc(F)cc3)n2)cc1	-11%	-21%
COc1ccc2c(C)c(CC(=O)Nc3nnc(C(C)(C)C)s3)c(=O)oc2c1OC	-4%	5%
COc1ccc(-c2nc3ccccc3c(=O)n2CCOc2cccc(OC)c2)cc1	4%	30%
O=C(CNC(=O)c1cc(-c2cccs2)nc2ccccc12)NC1CC1	39%[activator]	0%
Fc1ccc(/C=N/Nc2ccc(Cl)c(Cl)c2)cc1	25%	248%[activator]
Cc1cc2ccccn2c1/C=C/C(=O)C(F)(F)F	2%	11%
COC(=O)c1ccc(CN(C)C(C)C(=O)NCc2cccs2)cc1 (stereo not given)	8%	29%
COC(=O)c1cccc(CSC(C)C(=O)NCC(C)C)c1 (stereo not given)	3%	-4%
CCOc1ccc2c(c1)c(=O)c(S(=O)(=O)c1ccc(Cl)cc1)cn2Cc1ccccc1C	-4%	-11%
O=C(CCCc1nc2ccccc2s1)NC1CCCCC1	15%	98%[activator]
CCn1c(CN2CCOCC2)nc2cc(NC(=O)c3ccccc3[N+](=O)[O-])ccc21	-7%	11%
CSc1cccc(NC(=O)c2ccc3c(c2)NC(=O)CS3)c1	-1%[1.06 µM]	84%[activator]
CCN(C(=O)c1cnc2ccc(C)cn2c1=O)c1ccccc1	-10%	-12%
Fc1ccc(F)c(-c2csc(NCc3ccco3)n2)c1	25%	189%[activator]
Cc1cc(C)cc(NS(=O)(=O)c2ccc3c(c2)CCCN3C(=O)C2CCC2)c1	92%[activator]	?
Cc1cc(C)c(NC(=O)CCc2ncc(-c3ccc(Cl)cc3)o2)c(C)c1	-8%	2%
CC(=O)c1cccc(Nc2cc(C)nc3nc(Cc4ccccc4)nn23)c1	10%	3%
Cc1ccc(OC(=O)c2cccc(C(=O)Oc3ccc(C)c(C)c3)c2)cc1C	10%	159%[activator]
COc1cc(/C=C(/C#N)C(=O)NC2CC2)ccc1O	5%	4%
COc1cc2c(cc1OC)C(C)N(S(=O)(=O)c1ccc(Cl)c(Cl)c1)CC2 (stereo not given)	24%	0%
CNc1oc(/C=C/c2cccc(OC)c2)nc1C#N	16%	0%
O=C(CN1CCS(=O)(=O)CC1)N1CCN(c2ccccn2)CC1	6%	-2%
CCOC(=O)c1cc2c(=O)n3ccccc3nc2n(CC2CCCO2)c1=NC(=O)c1ccccc1OCC (stereo not given)	35%[activator]	-11%
Cc1oc2cc3oc(=O)c(CCC(=O)N4CCCCC4)c(C)c3cc2c1C	38%[activator]	180%[activator]
COc1cccc(C(=O)c2sc(Nc3ccc(F)c(Cl)c3)nc2N)c1	2%	9%
CCOC(=O)c1ccccc1NC(=O)Cn1ncc2c1-c1ccccc1OC2	-2%	-2%
COc1ccc(/C=C/c2nc(C#N)c(N3CCN(c4ccccc4)CC3)o2)cc1OC	-11%	4%
COc1cccc2cc(C(=O)NCc3ccccc3)c(=O)oc12	-22%	-11%
CC(=O)OC1C2COC(O2)C(OC(C)=O)C1OC(C)=O (stereo not given)	4%	21%
COC(=O)c1ccc(Oc2coc3cc(OCc4ccc(Cl)cc4)ccc3c2=O)cc1	0%	-9%
COc1ccc(OC)c2sc(N(Cc3cccnc3)C(=O)c3ccco3)nc12	-4%	-5%
Nc1ccc(C(=O)NNC(=S)Nc2ccccc2)cc1	26%	3%
O=C(NCCOc1ccc2ccccc2c1)c1cnc2ccccc2n1	8%	32%[activator]
Cc1ccc(C(=O)NNC(=S)NC(=O)c2ccc(C(C)(C)C)cc2)cc1	6%	0%
O=C(Nc1cccc(-c2nc3cc(Cl)ccc3o2)c1)c1ccccc1F	-12%	-10%
CC(C)CNC(=O)c1cc(-c2ccc(Cl)c(Cl)c2)on1	-15%	50%[activator]
CCOc1ccc(NC(=O)c2cnn3c2NC(C)=C(C(=O)Nc2ccc(Cl)cc2)C3c2ccc(OC)c(OC)c2)cc1 (stereo not given)	66%[activator]	-1%
CC(C)(C)C(=O)Nc1cccc(C(=O)Oc2ccccc2C#N)c1	-10%	12%
CCOC(=O)Nc1ccc2c(CN(C)C3CCCCC3)cc(=O)oc2c1	12%	7%
O=C(COc1ccccc1)Nc1cccc(-c2nc3ccccc3o2)c1	-1%	61%[activator]
O=C(O)c1cc(-c2ccc3c(c2)OCO3)nc2ccc(Br)cc12	19%&40%	138%&38%[activator]
COc1ccc(C(=O)NCC(c2ccc3c(c2)OCO3)N2CCN(C)CC2)cc1 (stereo not given)	-10%	-12%
Cc1ccc(N2C(=O)c3n[nH]c(C)c3C2c2ccc(C(C)C)cc2)cc1 (stereo not given)	20%	143%[activator]
Cc1cccc(C)c1NC(=O)c1ccc2c(c1)N(Cc1cccc(Cl)c1)C(=O)c1ccccc1S2=O (stereo not given)	14%	7%
COc1ccc(C(=O)/C=C/c2cn(CC(O)CN3CCc4ccccc43)c3ccccc23)cc1OC (stereo not given)	-3%	4%
CCOC(=O)c1ccccc1NC(=O)n1ncc2cc(Cl)ccc21	-7%	-3%
O=C(Nc1ncc(Cc2ccc(F)cc2)s1)c1ccc2c(c1)CC(c1ccccc1)OC2=O (stereo not given)	-7%	5%
CCOC(=O)C(NC(=O)C1CC1c1cccc(C)c1)C(=O)OCC (stereo not given)	0%	-5%
CC1CCCCN1S(=O)(=O)c1ccc2[nH]c(=O)cc(C(=O)NCCc3ccc(Cl)cc3)c2c1 (stereo not given)	-1%	-10%
CCCOc1ccc2ccccc2c1CN(C)C(=O)Cc1n[nH]c(=O)c2ccccc12	?	25µM*
COc1ccc2c(c1)CCc1c(C(=O)Nc3cc(OC)c(Cl)cc3OC)noc1-2	-17%	-4%
COCCN(CC(N)=O)S(=O)(=O)c1ccc(F)c(F)c1	-10%	-5%
COc1ncccc1CNC(=O)Nc1nnc(C(C)C)s1	7%	17%
Cc1nnc(SCC(=O)c2ccc(Cl)cc2)n1Cc1ccccc1	14%	14%
CCOC(=O)c1cc(C2(O)CCOC(C)(C)C2)on1 (stereo not given)	-7%	-11%
CCOc1cccc(C2c3[nH]c4ccccc4c3CCN2C(=O)c2ccccc2F)c1 (stereo not given)	-18%	?
COc1ccc2c(c1)CCc1c(C(=O)Nc3c(C)nn(Cc4ccc(Cl)cc4)c3C)noc1-2	-11%	-10%
CCCNC(=O)C(C)NC(=O)c1cc(F)cc2nc(C)c(C)nc12 (stereo not given)	-5%	2%
